Bfl-1 A1 inh: inhibitors of the anti-apoptotic protein A1, read as caspase activation; MEF A1-2A-BIM cells, Caspase-Glo 3/7 luminescence, 3 h; percent of clofoctol response, vehicle zero; caspase activation, % (test concentration not listed); hit rate 0.066% among 330,000; AID 2462;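 active = over half of replicate activation scores above 10%, or exactly half above 10 with the replicate mean above 10; inconclusive = replicate mean below 10 yet half the replicates above 10; inactive = over half of replicates below 10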;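 also: wells of about 30 µL received 50 nL stock; many hits fall short of the cut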
T cruzi inh: blocks replication of Trypanosoma cruzi; T. cruzi beta-gal in NIH3T3, luminescence, 90 h; inhibition, % (concentration not given with the values); hit rate 1.4% among 300,000;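 active = mean inhibition across valid replicates above about 55%, limit read from the data; inconclusive = mean below that limit but half or more replicates reach it; inactive = mean below it, under half of replicates reach it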;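 also: signal also drops with host cell toxicity which is not excluded here; 0% = plate median of DMSO wells and 100% = zero luminescence signal; higher percent means less beta-gal luminescence so fewer parasites; stock transfer was 50 nL into about 50 µL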
Ecoli rRNA inh: selective bacterial rRNA inhibition in E. coli. E. coli WT GFP vs humanized-ribosome RFP mutants, fluorescence, 24 h; hits give low values; DMSO median 0, no signal -100. GFP signal change (wild-type ribosome), % (test concentration not listed). hit rate 1.6% among 350,000. AID 720706;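 active = significant combined selectivity score with lowered wild-type GFP, culture density cut under 30%, mutant RFP and density less affected; inactive = any of these conditions unmet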; also: one replicate is shown; some compounds called inactive have numbers as strong as hits
UCH37 inh: human UCH37 deubiquitinating enzyme inhibition; inhibition, % (concentration not given with the values); hit rate 0.33% among 330,000; purified proteasome/UCH37, Ub-AMC cleavage fluorescence; AID 588478;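 active = mean of two replicates above 20%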;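 also: 0% = compound-free wells with enzyme and 100% = wells lacking proteasome; stock transfer was 100 nL into about 20 µL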
Target sequence (Q9Y5K5 whole entry, looked up): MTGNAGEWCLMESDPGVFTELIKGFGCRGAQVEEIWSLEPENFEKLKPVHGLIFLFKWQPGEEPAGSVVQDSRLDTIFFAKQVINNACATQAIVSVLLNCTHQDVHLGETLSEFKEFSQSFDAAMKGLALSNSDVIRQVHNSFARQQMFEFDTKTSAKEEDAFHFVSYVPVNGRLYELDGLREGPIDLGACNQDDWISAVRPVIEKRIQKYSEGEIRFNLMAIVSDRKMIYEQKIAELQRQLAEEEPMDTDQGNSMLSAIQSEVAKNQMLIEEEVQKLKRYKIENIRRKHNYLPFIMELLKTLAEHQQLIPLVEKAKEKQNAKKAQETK
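Material: Human UCH37 enzyme supplied as purified proteasome complex | Schedule: 30 min preincubation with enzyme, 25 min cleavage at room temperature | Detection: AMC fluorescence 355/460 nm | Measure: % inhibition of Ub-AMC cleavage fluorescence | Controls: Wells without proteasome as full block, compound-free enzyme plus substrate as uninhibited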
E coli growth: blocks Escherichia coli growth. OD600, 23 h; hits give low values. OD600 absorbance (no concentration beside the values). hit rate 0.21% among 330,000. AID 1053175;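 active = OD600 absorbance below the run mean of sample wells minus 3.6 SD, in any replicate, cut at about 0.56 in these data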;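 also: stock transfer was 300 nL into about 60 µL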
Beta apoptosis: beta cell apoptosis inhibition; INS-1E cytokine-induced death, ATP luminescence, 48 h; percent of positive-control rescue, neutral wells zero; protection from apoptosis, % (no concentration beside the values); hit rate 0.8% among 300,000; AID 435005;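 active = all replicates at 75% or more, or half of them and the mean; inconclusive = half reach 75% but not the mean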;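 also: 0% = cytokine-treated negative control wells and 100% = positive control rescue; higher means more ATP so stronger rescue from cytokine killing; wells of about 40 µL received 100 nL stock; the first replicate is given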
FGF22 binding: FGF22 (human) thermal shift binding; hit rate 1.5% among 340,000; calls only at 9.99 µM; recombinant FGF22 thermal shift, SYPRO orange fluorescence; percent of sucrose octasulfate shift, DMSO zero; AID 651658;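 active = melting point raised past a set limit in the mean and every replicate; inconclusive = no clear call; three in four hits are not shown here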
Target sequence (Q9HCT0 whole entry, looked up): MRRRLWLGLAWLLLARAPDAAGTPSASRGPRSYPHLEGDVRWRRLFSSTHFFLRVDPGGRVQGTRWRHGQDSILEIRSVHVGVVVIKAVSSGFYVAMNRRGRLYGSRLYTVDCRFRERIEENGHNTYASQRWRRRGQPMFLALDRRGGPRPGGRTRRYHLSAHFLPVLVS
MLL AF4-AF9 inh: inhibitors of human MLL-AF4/AF9 interaction; P42568; AlphaScreen, biotin-AF4 peptide binding to FLAG-AF9; inhibition, % at 10 µM; hit rate 0.47% among 350,000; AID 651704;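 active = every replicate reaching a set inhibition limit, whatever the replicate mean, cut at about 25% in these data; inconclusive = mean inhibition reaches that limit but some replicates miss it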;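 also: 0% = plate neutral control median and 100% = total signal loss; the record names both 10 and 1 µM as test concentration; the first replicate is given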
Target sequence (P42568 whole entry, looked up): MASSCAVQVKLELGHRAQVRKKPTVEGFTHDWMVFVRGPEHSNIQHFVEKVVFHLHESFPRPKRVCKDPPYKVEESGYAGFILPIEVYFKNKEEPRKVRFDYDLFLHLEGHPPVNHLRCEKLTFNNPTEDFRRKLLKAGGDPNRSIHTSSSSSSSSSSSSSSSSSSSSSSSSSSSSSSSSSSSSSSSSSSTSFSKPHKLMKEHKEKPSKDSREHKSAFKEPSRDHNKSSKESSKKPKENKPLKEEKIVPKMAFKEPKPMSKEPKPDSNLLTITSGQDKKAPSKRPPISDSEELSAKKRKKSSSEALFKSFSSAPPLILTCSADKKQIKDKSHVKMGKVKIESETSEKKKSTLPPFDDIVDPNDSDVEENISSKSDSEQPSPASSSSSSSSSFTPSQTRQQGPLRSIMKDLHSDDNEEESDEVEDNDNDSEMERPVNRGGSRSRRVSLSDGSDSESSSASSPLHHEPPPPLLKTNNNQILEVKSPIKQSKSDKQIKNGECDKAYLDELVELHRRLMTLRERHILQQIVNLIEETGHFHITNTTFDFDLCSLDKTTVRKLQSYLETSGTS
Ecoli rRNA inh OD600: further read-out of Ecoli rRNA inh, marked with its call; OD600 change, %; measured here: OD600 growth;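 optical density of the mix in the first replicate; 0 = DMSO median and -100 = no signal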
Ecoli rRNA inh RFP: second read-out of Ecoli rRNA inh, no call of its own (marks repeat the call); RFP signal change, %; measured here: RFP humanized mutant strains;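 first replicate; 0 = DMSO median and -100 = no signal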
* = called active by the depositor; i = inactive; ? = inconclusive; . = not tested or not shown.

SMILES | Bfl-1 A1 inh | T cruzi inh | Ecoli rRNA inh | Ecoli rRNA inh OD600 | Ecoli rRNA inh RFP | UCH37 inh | E coli growth | Beta apoptosis | FGF22 binding | MLL AF4-AF9 inh
Cc1cccc(NC(NC(=O)Cc2ccccc2)C(Cl)(Cl)Cl)c1 (centres undefined) | -0.6 | -6 | . | . | . | 3.4 | 0.66 | 1 | i | 2.5
COc1ccc(NC(=O)C2CCCN(S(=O)(=O)c3ccc4c(c3)CCCN4C(C)=O)C2)cc1 (centres undefined) | 1.7 | 12 | -19 | -16 | -5.3 | 0.9 | 0.63 | 5 | i | 2.6
CS(=O)(=O)c1ccc2nc(NC(=O)CCNC(=O)c3ccccc3Cl)sc2c1 | 0.6 | . | -3 | 7 | 1.8 | 3.0 | 0.65 | 2 | i | 0.8
CCC(=O)Nc1ccc(Cl)c(NC(=O)c2ccc([N+](=O)[O-])cc2)c1 | 1.4 | 17 | -3 | -1 | -0.1 | 1.3 | 0.64 | -3 | i | -3.1
C=CCn1c(SCC(=O)NNC(=O)Nc2ccc(C)cc2)nnc1-c1ccccc1 | -0.2 | -1 | 8 | -1 | 2.7 | 5.2 | 0.62 | -6 | i | -1.6
O=C(O)c1ccc(NC(=S)NC(=O)c2ccc3ccccc3c2)cc1 | -0.4 | -8 | -1 | -2 | -3.5 | 3.7 | 0.71 | -2 | i | -1.3
CC(C)Cc1nc(N2CCC(C(N)=O)CC2)c2nnn(Cc3ccccc3)c2n1 | 1.1 | 9 | . | . | . | -0.3 | 0.66 | -2 | . | .
O=C(COc1ccccc1Cl)NNC(=O)c1ccc(-n2cncn2)c([N+](=O)[O-])c1 | 2.2 | . | 1 | -5 | -1.9 | 3.8 | 0.67 | 0 | i | -4.5
CCOC(=O)c1sc2nc(NC(=O)COc3ccccc3)sc2c1C | 0.1 | 0 | -3 | 0 | 1.9 | -4.4 | 0.74 | -4 | i | -5.3
Cn1cnc([N+](=O)[O-])c1C(=O)Nc1cccc([N+](=O)[O-])c1 | 0.0 | 8 | 1 | 5 | -1.9 | 5.1 | 0.65 | -3 | i | -1.0
CCOC(=O)N1CCN(c2c(-c3ccc(C(C)C)cc3)c(=O)c2=O)CC1 | -0.2 | -2 | . | . | . | 5.6 | 0.64 | 5 | . | .
O=C1C2CCCN2C(c2cccc(Br)c2)N1c1ccc(F)cc1 (centres undefined) | ? | -2 | -1 | 0 | 0.7 | 1.7 | 0.74 | -3 | i | -3.8

Overlap with the part before: four compounds; new compounds follow.
SMILES | Bfl-1 A1 inh | T cruzi inh | Ecoli rRNA inh | Ecoli rRNA inh OD600 | Ecoli rRNA inh RFP | UCH37 inh | E coli growth | Beta apoptosis | FGF22 binding | MLL AF4-AF9 inh
CCOC(=O)c1sc2nc(NC(=O)COc3ccccc3)sc2c1C | 0.1 | 0 | -3 | 0 | 1.9 | -4.4 | 0.74 | -4 | i | -5.3
Cn1cnc([N+](=O)[O-])c1C(=O)Nc1cccc([N+](=O)[O-])c1 | 0.0 | 8 | 1 | 5 | -1.9 | 5.1 | 0.65 | -3 | i | -1.0
CCOC(=O)N1CCN(c2c(-c3ccc(C(C)C)cc3)c(=O)c2=O)CC1 | -0.2 | -2 | . | . | . | 5.6 | 0.64 | 5 | . | .
O=C1C2CCCN2C(c2cccc(Br)c2)N1c1ccc(F)cc1 (centres undefined) | ? | -2 | -1 | 0 | 0.7 | 1.7 | 0.74 | -3 | i | -3.8
COC(=O)/C(C#N)=C/c1c(N2CCN(Cc3ccc4c(c3)OCO4)CC2)nc2c(C)cccn2c1=O | -0.1 | 40 | 1 | -3 | -3.3 | 0.1 | 0.71 | 18 | i | 1.6
Fc1ccc(/C=N/N2CCN(Cc3ccccc3)CC2)cc1 | 0.4 | 10 | -7 | -9 | -0.8 | . | . | -5 | i | -4.4
COc1ccc(NC(=S)NC(NC(=O)c2ccc(Cl)cc2Cl)C(Cl)(Cl)Cl)c([N+](=O)[O-])c1 (centres undefined) | 0.2 | 34 | -22 | -23 | -8.7 | 3.4 | 0.69 | . | i | -9.7
O=C(c1cc(S(=O)(=O)N2CCOCC2)ccc1Cl)N1CCc2ccccc2C1 | 0.2 | 3 | -20* | -14* | 0.3* | 2.9 | 0.71 | -2 | i | 1.4
CC(=O)Nc1ccc(S(=O)(=O)Nc2ccc(S(=O)(=O)Nc3nc(C)cc(C)n3)cc2)cc1 | 0.5 | -4 | 4 | 1 | -2.0 | 1.6 | 0.64 | -3 | i | -2.9
CCC(=O)c1ccc(OC(=O)c2ccc(Br)o2)cc1 | 0.0 | 8 | . | . | . | 1.9 | 0.73 | 2 | . | .
O=C1N(Cc2cccnc2)C[C@@H]2C[C@@H](c3ccc4nonc4c3)N3CCC[C@@]123 | -0.4 | -9 | 10 | 7 | 0.1 | 3.5 | 0.72 | -3 | i | -0.3
Cc1ccccc1NC(=O)c1cc2c(=O)n3cccc(C)c3nc2s1 | -0.5 | 9 | 8 | 8 | -0.9 | i | 0.68 | 10 | i | ?
OC(CNCCN1CCNCC1)Cc1ccccc1 (centres undefined) | . | . | 15 | 12 | 4.1 | 0.7 | 0.67 | . | i | 9.1
CCOC(=O)c1c(N)sc2c1CCSC2 | 1.0 | -24 | . | . | . | 0.4 | 0.66 | 1 | . | .
CCOC(=O)C1(CCCc2ccccc2)CCN(C(=O)C2=C(C)OCCO2)CC1 | . | 6 | -20 | -20 | -2.1 | 5.8 | 0.75 | . | i | -0.7
CC(=O)Nn1cnc2c(c1=O)C1(CCCC1)Cc1ccccc1-2 | 0.2 | . | . | . | . | 4.1 | 0.7 | -11 | . | .
O=c1nc2sc3ccccc3n2c(=O)n1-c1cccc(Cl)c1 | -0.4 | 12 | . | . | . | -0.3 | 0.73 | 11 | . | .
CC1(c2ccccc2)CC(C)(C)N(C(=O)c2cc([N+](=O)[O-])cc([N+](=O)[O-])c2)c2ccccc21 (centres undefined) | -0.7 | 63* | 12 | 8 | -7.5 | 2.4 | 0.7 | 11 | i | 0.8
COc1ccccc1-c1nc(SCC(=O)Nc2ccccc2)n[nH]1 | 1.0 | 7 | -8 | -21 | 4.3 | 1.5 | 0.71 | -2 | i | -11
C=CCN1C(=O)c2ccc(C(=O)N(C)CC(=O)Nc3c(C)cccc3C)cc2C1=O | -0.4 | -20 | 18 | 21 | 2.0 | -0.7 | 0.67 | 2 | i | -0.8
O=C(Nc1nnc(-c2ccccc2Cl)s1)C1CCN(S(=O)(=O)c2ccc(Cl)cc2)CC1 | 0.3 | -3 | . | . | . | -1.5 | 0.71 | . | . | .
COc1ccc(NC(=O)c2ccc(=O)oc2)cc1 | 0.3 | 0 | . | . | . | 0.2 | 0.67 | . | . | .
CCOC(=O)NC(c1cccc(Cl)c1)C1CCCCCC1=O (centres undefined) | 0.7 | 1 | . | . | . | 1.3 | 0.71 | -2 | . | .
CC1(C)Cc2c(cnn2-c2cccc(F)c2)C(NC(=O)c2ccc(=O)[nH]n2)C1 (centres undefined) | -0.1 | 1 | -2 | -11 | -1.5 | 2.3 | 0.7 | -2 | i | 0.3
CCC(CC)C(=O)Nc1cccc(S(=O)(=O)c2cccc(NC(=O)C(CC)CC)c2)c1 | 0.5 | -16 | . | . | . | 0.9 | 0.73 | -2 | . | .
COc1ccc(C(C(=O)NC2CCCC2)N(C(=O)c2snc(C(N)=O)c2N)C2CCCC2)cc1OC (centres undefined) | 0.4 | -1 | -1 | 2 | 1.1 | . | . | -1 | i | 9.9
CC(=O)Nc1ccc(C(=O)n2cnc3cc(C)c(C)cc32)cc1 | 0.7 | 5 | . | . | . | 0.4 | 0.71 | . | . | .
CN1CCN(C(=O)CN2C(=O)CC(C)(C)S(=O)(=O)c3ccccc32)CC1 | 0.8 | -27 | . | . | . | -0.9 | 0.7 | -17 | . | .
COc1ccc(NC(=O)CSc2nnc3n2CCCCC3)cc1S(=O)(=O)N1CCOCC1 | -0.8 | . | . | . | . | -2.0 | 0.72 | -3 | i | 0.1
CCC(=O)Nc1ccc(NC(=O)c2oc3ccccc3c2C)cc1 | -0.2 | 35 | 4 | 3 | -1.8 | -0.9 | 0.65 | 3 | i | 1.0
COc1cccc(NC(=O)CCNS(=O)(=O)c2ccc3c(c2)oc(=O)n3C)c1 | 1.0 | 3 | 1 | 2 | -0.5 | 1.2 | 0.6 | 3 | i | -1.1
Cc1noc(C)c1CSCC(=O)Nc1nc2ccccc2s1 | -0.2 | -2 | -23* | -18* | 0.8* | 4.4 | 0.71 | -4 | i | -0.3
CCc1ccccc1NC(=S)N(CCN1CCOCC1)Cc1ccccc1F | 0.0 | 6 | -16 | -9 | -2.8 | 1.3 | 0.71 | 5 | i | 1.7
N#Cc1ccccc1OCC(=O)N(Cc1nnc(-c2ccccc2Cl)o1)C1CC1 | 0.6 | 0 | -8 | -5 | 0.9 | 2.3 | 0.64 | . | i | -2.3
O=C1CN(C(=O)CNC(=O)c2cccc(Cl)c2)c2ccccc2N1 | 0.2 | 1 | 7 | 1 | -4.2 | 2.3 | 0.67 | . | i | 0.0
Cc1ccc(SCC(=O)OC(C)C(=O)NCc2ccccc2)cc1 (centres undefined) | 0.1 | -9 | -11 | -10 | 3.3 | 5.8 | 0.68 | -3 | i | 0.6
CC1(C)NC(=O)NC2(C)NC(=O)NC(C)(C)C12 (centres undefined) | -0.4 | -3 | . | . | . | 1.5 | 0.71 | -1 | . | .
O=C(Nc1ccccc1)C(c1ccccc1)C1CCCC1 (centres undefined) | . | 20 | 1 | 0 | -0.1 | -0.3 | 0.68 | . | i | -0.3
CCN(CC)S(=O)(=O)c1ccc(C(=O)Nc2nnc(CSC)o2)cc1 | 1.9 | -18 | 0 | 3 | -4.9 | 5.0 | 0.73 | 5 | i | -0.9
O=C(Cc1ccccc1)NC1CCN(Cc2ccccc2)CC1 | 0.3 | 43 | 17 | 18 | 5.2 | 4.2 | 0.7 | 2 | i | -0.4
C=CCN1CCCC1CNC(=O)c1cc2[nH]nnc2cc1OC (centres undefined) | -0.2 | . | . | . | . | 0.1 | 0.67 | -3 | i | -1.7
CN(CC(=O)Nc1ccc(F)c(F)c1F)C(=O)c1ccc2c(c1)OCCO2 | 1.1 | -10 | 4 | 4 | 1.1 | 0.3 | 0.68 | 1 | i | -2.2
CC(O)(CS(=O)(=O)c1ccc(Br)cc1)c1ccccc1 (centres undefined) | 0.0 | 0 | 3 | 1 | -5.9 | 4.4 | 0.7 | -3 | i | -0.6

Individual results from the results shown.
Entry of O=C1C2CCCN2C(c2cccc(Br)c2)N1c1ccc(F)cc1 (centres undefined) in Ecoli rRNA inh OD600: 0
Entry of O=C(Nc1ccccc1)C(c1ccccc1)C1CCCC1 (centres undefined) in Ecoli rRNA inh: 1

Source: PubChem

An excerpt, so the mix of outcomes need not match the whole.
